# Compound activity: PubChem BioAssay, ICCB-Longwood Screening Facility, Harvard Medical School
# AID504770: growth inhibitors of E. coli YBA685 in a screen for V. cholerae RctB (chromosome II replication) inhibitors. z-score (no concentration beside the values). E. coli YBA685 rctB-dependent plasmid, OD600 growth, 3 h; stronger effect = lower value. 0.27% of 130,000 active;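 active means z-score under -2 on both plates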;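 further: wells of about 30 µL received 100 nL stock; score is relative to mean and SD of the test wells; the first replicate is given; strong numbers were not always called active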
# Ba CapD inh: inhibitors of Bacillus anthracis CapD enzyme. purified CapD enzyme, fluorescence intensity read-out; stronger effect = lower value; some hits fall short of the stated cut. z-score (no concentration beside the values). 0.23% of 140,000 active;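 active means z-score under -4 in either of two replicates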;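 further: stock transfer was 100 nL into about 40 µL; score is relative to mean and spread of the plate; one replicate is shown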
# An asterisk follows results filed as active; i = inactive; . = no result given.
Structure	AID504770	Ba CapD inh
CC(C)(C)c1csc(NC(=O)c2ccc3c(c2)OCCO3)n1	1.2	-0.41
CN1/C(=C/c2cccc[n+]2C)C=Cc2ccccc21	-0.8	-0.93
Cc1nn(C)cc1S(=O)(=O)N1CCCc2ccccc21	-0.6	0.26
COc1ccc(-c2cc(C(=O)N3CCN(c4ccccc4OC)CC3)c3ccccc3n2)cc1	.	1.4
S=c1nc[nH]c2c1cnn2-c1ccc(Cl)cc1	0.4	-1.8
COC(=O)c1cccc(N2C(=O)c3ccc(C(=O)OC)cc3C2=O)c1	1.4	-0.45
CC1=NNC(=O)CC1	-0.85	0.04
CCOc1ccc(C2Oc3ccc(Cl)cc3C3CC(c4ccc(OC)cc4)=NN32)cc1 (stereo not given)	.	-0.96
CC1(C)CC(=O)C2=C(C1)N(Cc1ccco1)C(=O)C2(NC(=O)c1cccs1)C(F)(F)F (stereo not given)	-0.5	-0.79
O=C(O)CCCC(=O)Nc1cccc(C(F)(F)F)c1	0.2	0.07

# Going on with the list.
Structure	AID504770	Ba CapD inh
COc1cc(NS(=O)(=O)c2c(C)c(C)c(C)c(C)c2C)cc(C(F)(F)F)c1	.	0.49
O=P1(O)C=C(c2ccccc2)NC(c2ccccc2)=C1	-0.15	.
O=C1c2ccncc2C(=O)N1CO	0.8	0.46
Oc1ccc(-c2cnc(-c3ccc(O)cc3)nc2)cc1	1.8	i
Cc1c(C(=O)N2CCN(c3cccc(Cl)c3)CC2)sc2nc[nH]c(=O)c12	-0.9	-0.095
O=[N+]([O-])c1cc(Cl)ccc1NCNc1ccc(Cl)cc1[N+](=O)[O-]	.	0.23
Nc1nc(COc2ccccc2Cl)nc(N2CCCCC2)n1	.	-0.4
CSc1nc2ccccc2n1CC(=O)Nc1ccccc1	0.2	0.57
CCOC(=O)CSc1nc2ccccc2n1C(=O)OCC	.	-0.44
Oc1cccc(C(O)CNc2c3c(nc4cc(-c5cccc(F)c5)nn24)CCC3)c1 (stereo not given)	-0.95	.

# Continued.
Structure	AID504770	Ba CapD inh
O=C(c1cc2c(Cl)ccc3c2n1CCO3)N1CCc2ccccc2C1	-1.5	4.8
CCC(=O)OCCn1c(=O)c2cc3c(=O)n(CCOC(=O)CC)c(=O)c3cc2c1=O	0.8	-0.41
COC(=O)c1ccccc1NC(=O)C1CCCCC1C(=O)O (stereo not given)	-0.5	-0.48
c1ccc(-c2ccc(COc3ccc(-c4nnco4)cc3)cc2)cc1	0.75	.
CCOc1ccc(CC(C(=O)O)C(=O)O)cc1	.	0.53
Cc1ccc(/C(C#N)=C2C=C/C(=N\O)C(Cl)=C\2Cl)cc1	.	-0.4
CCn1cc(/C=N/NC(=O)Cc2ccc3c(c2)OCCO3)c2ccccc21	0.5	.
CCC1C(=O)N=C(SCC(=O)Nc2cc(C)on2)NC1=O (stereo not given)	.	0.52
O=C(O)c1ccc(N=Cc2ccc(OC(=O)c3sc4ccccc4c3Cl)cc2)cc1	-0.5	0.1
COc1ccc(NC(=O)CSC2=C(C#N)C(c3ccc(C(C)C)cc3)CC(=O)N2)cc1 (stereo not given)	.	-0.36

# The listing continues.
Structure	AID504770	Ba CapD inh
CCCCC(CC)C1OCC(CN2CCCC2)O1 (stereo not given)	0.05	-0.74
Cc1cc(-c2ccc(C(=O)O)s2)c[nH]c1=O	-0.75	.
Cn1cccc1C(=S)NC(=O)Nc1ccccc1Cl	0.35	-0.14
CCOC(=O)c1cc2sccc2n1CC(=O)OC	0.5	.
COc1cc(-c2nc(N3CCCC(C)C3)c3ccccc3n2)cc(OC)c1OC (stereo not given)	.	3
Cc1cc(C)n(-c2ccnc3cc(Cl)ccc23)n1	2	-1.2
COc1ccccc1OCc1nc2ccccc2[nH]1	-0.1	0.96
CC1CCN(C(=O)Cc2noc3ccccc23)CC1	0.65	0.73
O=C(O)COc1ccccc1/C=N/NC(=O)c1cc2ccccc2cc1O	.	0.6
COc1ccccc1C1OC(=O)C[C@H]1C(=O)Oc1cccc(C(F)(F)F)c1 (stereo not given in full)	2	-1.1

# Other results:
Structure	AID504770	Ba CapD inh
C=CC1OCC2(CO1)C(C)C=C(C)CC2C (stereo not given)	-0.5	0.28
CC(C)C1N(C(=O)CN2CCN(C)CC2)CCCN1S(=O)(=O)c1ccccc1 (stereo not given)	1.8	.
O=C1c2ccccc2C2(CCCC2)C(=O)N1Cc1ccccc1	0.35	-0.47
CN(C)c1ccc(/C=C(/NC(=O)c2ccccc2)C(N)=O)cc1	-1.1	.
CC(c1ccccc1)n1cc(C(=O)NCCCN2CCCC2=O)nn1 (stereo not given)	1.6	.
COc1cccc(CNC(=O)CCCc2cccs2)c1	0.35	.
CCOC(=O)c1sc(N)c(C#N)c1CSc1nnc(Nc2c(C)cccc2C)s1	-0.05	.
Cc1cc(N2CC(C)OC(C)C2)n2c(nc3ccccc32)c1C#N (stereo not given)	.	-0.18
O=C(Nc1ccc2c(c1)CCC2)c1cc(=O)[nH]c2ccccc12	-0.75	0.85
CCOC(=O)C1=C(CSc2nc(C)c(C)c(C)c2C#N)OC(N)=C(C#N)C1c1ccc(Cl)cc1 (stereo not given)	.	0.06

# Carrying on.
Structure	AID504770	Ba CapD inh
COc1cc(CN2CCN(CCOC(=O)N3CCN(c4cc(C(F)(F)F)ccn4)CC3)CC2)cc2c1OCO2	.	86
Cc1ccc(CNCc2ccc(C(=O)O)s2)cc1	-0.2	0.16
COc1ccc(O)c(C(=O)c2cc(C#N)c(=O)n(C(C)C)c2)c1	-0.4	.
CN(/N=C/c1ccncc1)C1=NCCN1	-0.45	-0.4
C=C/C=C(\C=C(C)C)N(C(=O)NC1CCCCC1)C1=NCCCS1	-1.3	.
CC(C)NC(=S)N/N=C/c1ccc(N2CCOCC2)cc1	-0.7	.
CC(C)(C)C1CCc2oc3ccc(NS(=O)(=O)c4ccc5ccccc5c4)cc3c2C1 (stereo not given)	.	-0.55
Cc1ccc(-c2n[nH]c3c2C(c2ccccc2[N+](=O)[O-])N(c2ccc(F)cc2)C3=O)cc1 (stereo not given)	.	-0.015
CC(C)NC(=O)CN1CCN(S(=O)(=O)c2ccccc2C#N)CC1	.	0.15
O=C(CN1CCc2ccccc2C1)c1ccc(OC(F)F)cc1	-0.2	.

# More compounds:
Structure	AID504770	Ba CapD inh
COc1nccn(-c2ccccc2)c1=O	0.15	.
CCn1c(CCCNC(=O)Cc2ccccc2)nc2ccccc21	-0.1	-0.085
Cc1c(C)n(CC(O)CNCC2CCCO2)c2ccccc12 (stereo not given)	0.85	0.28
COc1ccccc1CN(c1ccc2[nH]c(C(C)(C)C)cc2c1)S(=O)(=O)c1cccc(C(F)(F)F)c1	.	-0.16
CCOc1ccc(C(=O)CSc2nc3c(c(=O)n(C)c(=O)n3C)n2C(C)C)cc1	-1.5	.
O=C(Nc1nc2ccccc2s1)c1cnccc1C(F)(F)F	-0.15	-0.06
Nc1c(C(=O)c2ccccc2)oc2ccccc12	-0.7	0.7
Cc1ccc(NC(=O)C/C(N)=N/O)cc1Cl	.	2.1
COc1cc(Br)c(O)c(C=NCc2ccc(OC)c(OC)c2)c1	.	-0.16
COc1ccccc1C1C(C#N)=C(SCC(=O)OCc2ccccc2)NC(=O)C1C#N (stereo not given)	.	0.32

# Filtered by structure: those above containing an NH in an aromatic ring (seven)
Structure	AID504770	Ba CapD inh
S=c1nc[nH]c2c1cnn2-c1ccc(Cl)cc1	0.4	-1.8
Cc1c(C(=O)N2CCN(c3cccc(Cl)c3)CC2)sc2nc[nH]c(=O)c12	-0.9	-0.095
Cc1cc(-c2ccc(C(=O)O)s2)c[nH]c1=O	-0.75	.
COc1ccccc1OCc1nc2ccccc2[nH]1	-0.1	0.96
O=C(Nc1ccc2c(c1)CCC2)c1cc(=O)[nH]c2ccccc12	-0.75	0.85
Cc1ccc(-c2n[nH]c3c2C(c2ccccc2[N+](=O)[O-])N(c2ccc(F)cc2)C3=O)cc1 (stereo not given)	.	-0.015
COc1ccccc1CN(c1ccc2[nH]c(C(C)(C)C)cc2c1)S(=O)(=O)c1cccc(C(F)(F)F)c1	.	-0.16

# (listing goes on)
Structure	AID504770	Ba CapD inh
CCOC(=O)CSc1nnc(CCCN2C(=O)c3cccc4cccc(c34)C2=O)n1-c1ccccc1	.	15
O=C(NCCOc1ccccc1)c1ccc(=O)[nH]c1	-0.3	0.67
O=[N+]([O-])c1ccc(-c2n[nH]c(=S)o2)o1	.	-2.8
CCc1cc(=O)oc2cc(OC3CCCCC3=O)ccc12 (stereo not given)	-0.85	20
CCCCn1c(=N)n(CC(=O)OCC)c2ccccc21	0.3	-0.14
Cc1ccc2c(c1)-c1c(ssc1=S)C(C)(C)N2C(=O)CSc1nncn1C	.	-0.4
O=S(=O)(NC1CC2CCC1C2)c1ccc(Br)s1 (stereo not given)	.	0.45
C#CCn1c(O)c(N=NC(=O)c2cc(OC)c(OC)c(OC)c2)c2ccccc21	-0.45	.
Cc1sc2ncn(-n3cccc3)c(=O)c2c1C	-0.6	-0.65
O=C1c2ccccc2CN1Cc1ccccc1	-0.8	-0.045

# Following part
Structure	AID504770	Ba CapD inh
Oc1ccccc1CN1CCN(Cc2ccccc2O)C1c1ccco1	-0.3	.
Cc1cc(C)nc(NS(=O)(=O)c2ccc(NC(=O)CSc3nccn3C)cc2)n1	.	0.1
O=c1sc2c(n1-c1ccccc1)SCC1COc3ccccc3C21 (stereo not given)	0.6	0.055
CCn1c(C)cc(O)c(C(c2cccc(OC)c2)N2CCN(c3ccc(F)cc3)CC2)c1=O (stereo not given)	0.3	.
Cc1nnc(SCc2ccco2)c2c1nnn2Cc1ccc(F)cc1	-0.55	0.29
O=C(Cn1nnc(-c2cccc(C(F)(F)F)c2)n1)NCc1ccc(Cl)cc1	2.5	-0.95
O=C1CC2(CCCC2)C(=O)N1C1CCN(c2ncc(C(F)(F)F)cc2Cl)CC1	-0.45	-1.2
O=C(c1ccccc1F)N1c2ccccc2Sc2ccccc21	1.1	-0.41
COc1ccc(OC)c(N(CC(=O)NCCc2ccc(OC)c(OC)c2)S(=O)(=O)c2ccccc2)c1	.	0.3
COc1ccc(C2CC(c3cccs3)=NN2C(=O)CCC(=O)O)cc1 (stereo not given)	.	8.8

# New compounds follow:
Structure	AID504770	Ba CapD inh
CCC(Sc1nc2ccccc2s1)C(=O)Nc1ccccc1C#N (stereo not given)	0.05	0.27
CCN1CCCC1CNC(=O)CSc1cc(=O)n(C)c2cc(Cl)ccc12 (stereo not given)	0.5	3.2
COc1ccc(C2=NN(C(=O)c3cc(OC)c(OC)c(OC)c3)C(c3cccc([N+](=O)[O-])c3)C2)cc1OC (stereo not given)	.	-0.05
O=C(CCc1ccc(S(=O)(=O)N2CCOCC2)cc1)NCc1ccncc1	1.2	.
O=C(/C=C/c1cc2cccc3c2n(c1=O)CC3)NCc1cccc(C(F)(F)F)c1	.	6.1
CC(C)(C)NC(=O)N1CCC(C(=O)O)CC1	-0.95	0.18
Nc1cc(N)nc(SCCN2CCOCC2)n1	-0.9	.
COCCNc1nc(-c2cccs2)cs1	-0.15	.
CC(=O)Nc1cccc(C(=O)O)c1	-0.25	0.28
C1CCC(OCCN2CCN(CCOC3CCCCC3)CC2)CC1	-0.8	0.09

# (listing goes on)
Structure	AID504770	Ba CapD inh
CCN(CC)c1nc(NCC(=O)O)nc(NCC(=O)O)n1	-0.4	-0.045
CCCN1CCC(NC(=O)Nc2cc(C)ccc2C)CC1	-0.85	0.52
CC(C)(C)C(=O)Nc1cccc(-c2ncon2)c1	-0.6	-0.38
Cc1ccc(-n2nc(C)c(C(C)(O)C(F)(F)F)c2N)cc1 (stereo not given)	0	-0.94
CC(C(=O)Nc1ccccc1O)N1C(=O)C2C3C=CC(C3)C2C1=O (stereo not given)	0	-0.12
O=C(c1cc2ccccn2n1)N1CCCC1	-0.75	0.72
Brc1ccc(-c2nc(-c3ccccc3)c(-c3ccc(Oc4ccccc4)cc3)[nH]2)cc1	.	-0.12
COc1ccc(C(=O)N/N=C/c2cccc(OC)c2[N+](=O)[O-])cc1OC	.	-1.9
O=C1c2ccccc2C(=O)N1CN(Cc1ccccc1)CN1C(=O)c2ccccc2C1=O	-0.5	.
COCCN1Cc2cccc(C(=O)N3CCN(C4CCCCC4)CC3)c2C1=O	1.2	-1

# Reformatted: two of the compounds above.
# Under each structure: AID504770	Ba CapD inh
- O=C(c1cc2ccccn2n1)N1CCCC1
→ -0.75	0.72
- Brc1ccc(-c2nc(-c3ccccc3)c(-c3ccc(Oc4ccccc4)cc3)[nH]2)cc1
→ .	-0.12

# The list goes on:
Structure	AID504770	Ba CapD inh
COc1ccc(C(=O)Nc2cc(-c3nc4ccccc4s3)ccc2C)cc1	.	1.8
CCc1ccc(NC(=O)CCn2c(=O)oc3ccccc32)cc1	0.1	0.06
COc1ccc(C2=NN(C(=O)CCC(=O)O)C(c3ccc(C)cc3)C2)cc1 (stereo not given)	.	6.5
O=C1NC(=S)N(c2cc(Cl)cc(Cl)c2)C(=O)/C1=C/c1ccc2c(c1)OCO2	.	0.3
Cc1ccc(-c2nnn(CC(=O)N(Cc3cccs3)C(C(=O)NCC3CCCO3)c3ccc(F)cc3)n2)o1 (stereo not given)	0.2	.
CCCN(C1CCN(C)CC1)S(=O)(=O)c1ccc(NC(=O)C(C)(C)C)cc1	.	-0.32
CCCCNC(=S)Nc1ccc2nc3n(c(=O)c2c1)CCCCC3	0.65	0.03
CCn1c2c(n[n+]1[O-])C(=O)c1ccccc1C2=O	0.9	-0.5
CCNC(=S)N(CCc1c(C)[nH]c2ccccc12)Cc1ccccn1	-1.2	0.48
N#Cc1ccc(-c2ccon2)s1	.	1.2

# Continued.
Structure	AID504770	Ba CapD inh
CCc1cc(Cl)c(OC)c(C(=O)NCC2CCCN2CC)c1O (stereo not given)	.	-0.44
CC1CCCC(NC(=O)COC(=O)c2ccc(C#N)cc2)C1C (stereo not given)	0.15	0.68
O=C(Nc1ccccn1)c1cccc(C(=O)Nc2ccccn2)c1	-0.4	-0.05
O=C(Nc1nnc(-c2ccc3c(c2)CCCC3)o1)C1CCCCC1	0.55	-0.08
